# Source: PubChem BioAssay
# Vaccinia pol inh: blocks vaccinia virus processive DNA synthesis; in vitro processive DNA synthesis, absorbance read-out; active compounds read low; some inactives read as strong as hits; normalized absorbance, % (concentration not given with the values); actives 0.94% (n = 46,000);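 active = replicate mean up to 90% and picked by the depositor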;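 also: 100% = median of the test wells of a plate; 100 nL library stock went into each well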
# The depositor's hits bear a star.
smiles | Vaccinia pol inh
CSc1nnc(CSc2nc(C)cc(C)n2)n1-c1ccc(F)cc1 | 98.3
O=S(=O)(NC1CCCCC1N1CCCCC1)c1ccccc1 (stereo unspecified) | 95.2
O=C1C(NS(=O)(=O)c2ccccc2)=C/C(=N\S(=O)(=O)c2ccc(F)cc2)c2ccccc21 | 96.8
O=C=NC(Cl)(c1ccccc1)C(F)(F)F (stereo unspecified) | 101.6
Cc1cc2cc(CNC(=O)C34CC5CC(CC(C5)C3)C4)ccc2[nH]1 | 98.5
CC12COC3(C(N)=O)CC1CCC32C (stereo unspecified) | 104.7
O=C(NCc1ccccc1)C(Cc1ccccc1)N1C(=O)c2ccccc2C1=O (stereo unspecified) | 99.8
COc1ccc(C2=NOC(C(=O)Nc3ccc(C)cc3)C2)cc1 (stereo unspecified) | 102.9
Cc1ccc(C(=O)c2ccc(CC(=O)O)n2C)cc1 | 99.7
N#CC1=C(SCC(=O)NC2CCCCC2)NC(=O)CC1c1ccco1 (stereo unspecified) | 113.1
CSc1ccc(CCNC(=O)c2cc3c(s2)-c2ccccc2S(=O)(=O)C3)cc1 | 99.4
NC(=O)COc1ccc(/C=c2/sc3nc4ccccc4n3c2=O)cc1 | 99.9

# Laid out differently: results already given.
COc1ccc(C2=NOC(C(=O)Nc3ccc(C)cc3)C2)cc1 (stereo unspecified)
  Vaccinia pol inh: 102.9
Cc1cc2cc(CNC(=O)C34CC5CC(CC(C5)C3)C4)ccc2[nH]1
  Vaccinia pol inh: 98.5
O=C(NCc1ccccc1)C(Cc1ccccc1)N1C(=O)c2ccccc2C1=O (stereo unspecified)
  Vaccinia pol inh: 99.8
CSc1ccc(CCNC(=O)c2cc3c(s2)-c2ccccc2S(=O)(=O)C3)cc1
  Vaccinia pol inh: 99.4

# Next part.
smiles | Vaccinia pol inh
C=C(C)c1cccc(C(C)(C)NC(=O)NCc2ccc(OC)cc2)c1 | 100.7
N#CC(NC(=O)c1ccccc1)=C(Br)Br | 103.7
O=c1cc(N2CCCCC2)[nH]c(=O)n1C1CCCCC1 | 97.2
C=CCN(c1ccccc1)S(=O)(=O)c1ccc2c(c1)CC(C)N2C(=O)C1CC1 (stereo unspecified) | 102.1
COc1ccc(Cc2nc3ccccc3n2Cc2ccccc2)cc1 | 108.0
CCC(Sc1nnc(-c2cc3occc3n2C)n1-c1ccccc1C)C(=O)Nc1ccc(C)cc1 (stereo unspecified) | 99.6
CC1CCN(CCC(=O)Nc2ccccc2F)CC1 | 106.1
O=C(NC1CCCCC1)C1CCC(CNS(=O)(=O)c2ccccc2)CC1 (stereo unspecified) | 106.5
COc1ccccc1-c1nn(CCC#N)c2nc(C(F)(F)F)cc(C3CC3)c12 | 102.1
Cc1c(C)c(C)c(S(=O)(=O)N2CCCC2)c(C)c1C | 99.0
CC[C@@]1(O)C[C@H](O[C@H]2C[C@H](N(C)C)[C@H](O)[C@H](C)O2)c2c(cc3c(c2O)C(=O)c2c(O)cccc2C3=O)[C@H]1C(=O)OC | 8.9*
Cc1ccc(N=C2S/C(=C/c3cccc(OCC(=O)O)c3)C(=O)N2C)cc1C | 99.9
Cc1nc2c([nH]1)C1(CCC(c3ccccc3)CC1)C(C#N)=C(N)O2 (stereo unspecified) | 100.8
NCCNC(=O)c1ccc(Cl)cc1 | 98.9
O=C(Nc1nnc(SCc2cccc(F)c2)s1)c1ccccc1 | 100.8

# Part of the list above in order of heavy-atom count, low to high.
smiles | Vaccinia pol inh
N#CC(NC(=O)c1ccccc1)=C(Br)Br | 103.7
Cc1c(C)c(C)c(S(=O)(=O)N2CCCC2)c(C)c1C | 99.0
COc1ccc(Cc2nc3ccccc3n2Cc2ccccc2)cc1 | 108.0
O=C(NC1CCCCC1)C1CCC(CNS(=O)(=O)c2ccccc2)CC1 (stereo unspecified) | 106.5

# This is a subset; rates above refer to the full screens.
